High-throughput results (PubChem BioAssay)
miR-21 reporter: miR-21 reporter, rising signal | HeLa miR-21 FLuc reporter, luciferase, 48 h | Potency, µM (doses to about 38.3 µM), without a hit: at the highest dose reporter change, positive = more light | 340,000 tested, under 10 active; active = well fitted rising curve with a large enough effect; inconclusive = small, poorly fitted or top-dose-only effect; inactive = no such curve, though single readings can be large or run the other way;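 note: % of control where 0% means no effect; miR-21 action dims this reporter so a rising signal means less miR-21 action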
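HeLa cells stably expressing CMV-driven firefly luciferase with a downstream miR-21 binding sequence, endogenously expressing miR-21, were treated with titrations (up to about 40uM final) for 48 hours at 37 degree Celsius. Luciferase luminescence was read after lysis.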
Numbers without * were called inactive; ? = inconclusive. The list is partial. The share of hits here may be higher or lower than overall.

Sample of the layout:
SMILES | miR-21 reporter
Cc1nc2ccccn2c(=O)c1NC(=O)c1ccccc1Cl | -8%
Cc1ccccc1C(=O)Nc1nnc(SCc2cc(=O)c3c(C)ccc(C)c3[nH]2)s1 | 0%

Main list, previewed entries included:
SMILES | miR-21 reporter
Cc1nc2ccccn2c(=O)c1NC(=O)c1ccccc1Cl | -8%
Cc1ccccc1C(=O)Nc1nnc(SCc2cc(=O)c3c(C)ccc(C)c3[nH]2)s1 | 0%
COc1cc(Cl)c(C)cc1NC(=O)CSc1cc(=O)n(C)c2cc(Cl)ccc12 | -4%
Cc1nc(-c2ccccc2)sc1-c1ccc(SCC(=O)NCc2ccc(Cl)cc2)nn1 | -10%
CC(C)Cc1ccccc1O | 0%
Cc1nn(-c2ccccc2)c(OC(=O)c2ccccc2)c1S(=O)(=O)c1ccccc1 | 1%
CC(C)(C)OC(=O)N1CCC(c2c(C(=O)O)cnn2-c2ccc(F)cc2F)CC1 | -1%
CC(C)c1ccc(NC(=O)CN2C(=O)C3(SCC(=O)N3c3ccc(F)cc3)c3ccccc32)cc1 (stereo unspecified) | 26%
Cc1ccc(-n2nc3c(N4CCC(C(=O)N5CCC(C)CC5)CC4)nnc(C)c3c2C)cc1 | -8%
COc1ccc(-c2cn3cccnc3n2)cc1NC(=O)c1ccccc1C(F)(F)F | 2%
Cc1cccc(NC(=O)c2oc3c(c2C)-c2[nH]ncc2CC3)c1C | 5%
CC(C)COc1ccc(C(=O)NCC2OCCc3ccccc32)cc1 (stereo unspecified) | -10%
COc1ccc(-c2cn3nc(N4CCC(C(=O)NCc5cccc(Cl)c5)CC4)sc3n2)cc1 | -38%
Cc1cccc(N2CCN(S(=O)(=O)c3ccc(-c4cnc(C5CC5)o4)cc3)CC2)c1C | 11%
CCCCCS(=O)(=O)c1oc(-c2cccs2)nc1S(=O)(=O)c1ccc(C)cc1 | 11%
CCc1ccc(NC(=O)Nc2cn(C)c(=O)c3ccccc23)cc1 | 6%
CC(C)CC(C(=O)NCC1CCN(Cc2ccc(F)cc2)CC1)N1Cc2ccccc2C1=O (stereo unspecified) | -5%
CCOc1ccc(NC(=O)C2(c3cccs3)CCOCC2)cc1 | -2%
Cc1ccc(Nc2ncnc3c2cnn3-c2ccc(C)cc2)cc1 | -42%
CCn1cc(C(=O)NCCc2ccc(Cl)cc2)c(=O)c2cc(S(=O)(=O)N3CCC(C)CC3)ccc21 | -1%
COc1cc(Cl)c(C)cc1Nc1c2c(nc3ccccc13)CCC2 | ?
COc1cc2cc(CNc3ccccc3)c(=O)n(CC(=O)Nc3ccc(C)c(Cl)c3)c2cc1OC | -1%
COc1ccc(C(=O)CSc2c(C(C)C)cnc3c2c(=O)n(C)c(=O)n3C)cc1 | -1%
CCOC(=O)c1ccc(NC(=O)c2cnn3c(=O)c4c(n(CC)c23)CCN(Cc2ccc(OC)cc2)C4)cc1 | -4%
CC(C)c1ccc2oc(-c3ccc(NC(=O)c4cccc(Br)c4)cc3)nc2c1 | -3%

Reformatted with tabs: 4 of the compounds above
SMILES	miR-21 reporter
CC(C)COc1ccc(C(=O)NCC2OCCc3ccccc32)cc1 (stereo unspecified)	-10%
COc1ccc(-c2cn3nc(N4CCC(C(=O)NCc5cccc(Cl)c5)CC4)sc3n2)cc1	-38%
Cc1cccc(N2CCN(S(=O)(=O)c3ccc(-c4cnc(C5CC5)o4)cc3)CC2)c1C	11%
CCCCCS(=O)(=O)c1oc(-c2cccs2)nc1S(=O)(=O)c1ccc(C)cc1	11%

Next section:
SMILES | miR-21 reporter
Cc1ccc(Cl)cc1NC(c1ccc(F)cc1)c1nnc(-c2ccccc2)o1 (stereo unspecified) | 0%
COc1ccc(-c2cn3c(n2)sc2cc(C(=O)NCCCN4CCN(C)CC4)ccc23)cc1 | -6%
COc1ccc(NC(=O)C(NS(=O)(=O)c2cccc3nsnc23)c2ccccc2)cc1 (stereo unspecified) | 1%
Cc1ccc(-n2nc(C)c3c(C)c(CCC(=O)NCc4cccc(Cl)c4)c(C)nc32)cc1C | -4%
O=C(c1[nH]c2ccccc2c1Sc1ccc(Cl)cc1)N1CCCCC1 | 1%
COc1ccc(CCNC(=O)CCCn2nc(C)c3sc4ccccc4c3c2=O)c(OC)c1 | -22%
CCN(CC)S(=O)(=O)c1cccc(C(=O)Nc2sc3c(c2C#N)CCC(C)C3)c1 (stereo unspecified) | -10%
CCc1nn(CC(=O)N2CCN(c3cccc(OC)c3)CC2)c(=O)c2cc3occc3n12 | -3%
O=C(Nc1c(Cl)cccc1Cl)c1cc(-c2ccc3c(c2)OCO3)on1 | -56%
Cn1c(=O)n(C)c2cc(N3CCOCC3)c(NC(=O)c3ccccc3Br)cc21 | -34%
Cc1cc(Br)ccc1NC(=O)c1sc2ncn(Cc3ccccc3Cl)c(=O)c2c1C | -3%
COc1ccc(C(CNC(=O)COc2ccc(Cl)c(C)c2)N2CCOCC2)cc1 (stereo unspecified) | 7%
Cc1cccc2c1-c1sc(C(=O)N(C)c3cccc(Cl)c3)cc1CO2 | -16%
O=C(CSc1nc2ccccc2n1Cc1ccc(F)cc1)N1CCN(c2ccc(F)cc2)CC1 | -16%
Cc1ccc(NC(=O)CN2C(=O)C(c3ccc(F)cc3)=NC23CCCCC3)c(C)c1 | ?
COc1ccc(OC)c(CCNc2nc3cc(OC)c(OC)cc3c3nc(-c4cccnc4)nn23)c1 | 0%
COc1ccc(N2CCN(C(=O)CCc3c(C)nc4cc(-c5ccc(Cl)cc5)nn4c3C)CC2)cc1 | 19%
Cc1ccc(NC(=O)CSc2cn(CC(=O)N3CCCC3)c3ccccc23)cc1Cl | ?
COc1ccc(NC(=O)c2oc3ccccc3c2NC(=O)Cc2coc3ccc(C)cc23)cc1 | -43%
O=[N+]([O-])c1cc(-c2nc(-c3ccccc3)no2)ccc1NCCc1ccccc1 | -7%
Cc1cc(C)n2nc(CNC(=O)c3ccc(Cl)cc3)nc2n1 | -11%
Cc1cc(NC(=O)C2CCC(CNS(=O)(=O)c3ccc(Br)s3)CC2)ccc1Br (stereo unspecified) | -6%
Cc1cc(Nc2cc(Cl)ccc2C)n2nc(Cc3ccccc3)nc2n1 | -8%
Cc1cccc(NC(=O)c2ccc3snnc3c2)c1 | -36%
CN(C)c1ccc(NC(=O)Cn2c(SCc3ccc(F)cc3)nc3cccnc32)cc1 | -27%
Going on with the list.
SMILES | miR-21 reporter
COc1cccc(C(=O)N2CCCCC2CCN2CCCCC2)c1 (stereo unspecified) | 1%
CCOc1ccc(-c2c(C)nn3c(C)c(C(=O)NCc4cccc(OC)c4)cnc23)cc1OCC | 5%
CCN(CCCNC(=O)c1nn(-c2ccc(OC)cc2)c(=O)c2c1c1ccccc1n2C)c1cccc(C)c1 | -6%
Cc1cccc(-c2nc3c4ccccc4nc(N4CCN(c5ccccc5F)CC4)n3n2)c1 | -17%
CCC1CCCCN1C(=O)c1sc(-n2nc(C)c(Cc3ccccc3)c2C)nc1C (stereo unspecified) | -5%
COc1cccc(C(c2c(O)cc(C)n(Cc3ccco3)c2=O)N2CCN(c3ccccc3)CC2)c1 (stereo unspecified) | -6%
CCOc1ccc(C(=O)Nc2ccc3oc(-c4ccncc4)nc3c2)cc1 | -13%
Cc1ncc(CO)c2c1Oc1nc(-c3ccc(Cl)cc3)nc(SCC(=O)N3CCCCC3)c1C2 | -8%
N#Cc1c[nH]n2c(NC3CCCC3)c(-c3cccc(Cl)c3)nc12 | 1%
O=C(Nc1ccc(OCc2cc(=O)n3ccsc3n2)cc1)c1ccc(F)cc1 | 6%
Cc1cccc(NC(=O)CSc2ccc(-c3sc(-c4ccccc4)nc3C)nn2)c1C | 2%
CCc1ccc(NC(=O)CC2C(=O)N(c3ccc(Cl)cc3)C(=O)N2Cc2ccco2)cc1 (stereo unspecified) | -3%
CCc1ccccc1N1C(=O)N(Cc2ccccc2C)c2ccccc2S1(=O)=O | 25%
CCC(Sc1nc(-c2ccc(F)cc2)nc2c1Cc1c(CO)cnc(C)c1O2)C(=O)Nc1ccc(F)cc1 (stereo unspecified) | -1%
O=S(=O)(c1ccccc1)c1nc(-c2ccc(F)cc2)oc1N1CCCCCC1 | 4%
CC1CCCCN1C(=O)CSc1c2c(nc3cc(Cl)ccc13)CCCC2 (stereo unspecified) | 21%
COc1cc(S(=O)(=O)NCCc2c(C)[nH]c3ccccc23)c(C)cc1C | ?
COc1ccc(Cn2c(SCc3ccc(C(=O)NC4CCCCC4)cc3)nc3ccncc32)cc1 | ?
Cc1ccc(S(=O)(=O)NCc2ccc(C(=O)NCCc3cccc(C)c3)cc2)cc1 | -2%
O=C(c1cccs1)c1cn(CCOc2ccccc2Cl)c2ccccc12 | -2%
COc1ccc(Cl)cc1CNCCSc1nnnn1C | -6%
CCN(CC)C(=O)C1CCN(S(=O)(=O)c2c(C)noc2/C=C/c2cccc(OC)c2)CC1 | -11%
COc1cccc2c1Oc1ncccc1N(c1ccc(C(=O)NCc3ccccc3Cl)s1)C2 | -2%
CCC(C(=O)Nc1ccc(C(C)=O)cc1)n1cnc2nc3c(cc2c1=O)CCCC3 (stereo unspecified) | -3%
CCOc1cccc(C(=O)N(Cc2ccc(C)o2)C2CCS(=O)(=O)C2)c1 (stereo unspecified) | -5%
Next section:
SMILES | miR-21 reporter
CCCn1c(=N)c(C(=O)NC(C)c2ccccc2)cc2c(=O)n3ccccc3nc21 (stereo unspecified) | 1%
CCN(CC)c1cc2c(cc1F)c(=O)c(S(=O)(=O)c1ccc(OC)cc1)cn2Cc1ccccc1 | -1%
CCOc1ccccc1NC(=O)c1cnc(N2CCOCC2)c2ccccc12 | -3%
COc1ccccc1NC(=O)C1=C(C)Nc2nc(SCc3ccccc3F)nn2C1c1cccnc1 (stereo unspecified) | -1%
CCc1ccc(NC(=O)c2ccc(Cn3nc(N4CCN(c5ccccc5)CC4)ccc3=O)o2)cc1 | 15%
COc1ccc(-c2ccc(=O)n(CC(=O)Nc3ccc(C)cc3C)n2)cc1 | -14%
COc1ccc(OC)c(-c2nc3c(C#N)c[nH]n3c2NC2CCCCC2)c1 | ?
CCOc1ccc(CNC(=O)c2cc3c(=O)n(C)c4ccccc4c3s2)cc1 | -1%
Cc1ccc(C(C)C)c(OCC(=O)NCC2(N3CCOCC3)CCCCC2)c1 | 23%
Cc1cc(=O)n2nc(N3CCC(C(=O)Nc4ccc(Br)c(C)c4)CC3)sc2n1 | -9%
Cc1ccc(CCNC(=O)CCCn2c(=O)c3cccn3c3ccc(F)cc32)cc1 | 4%
Cc1cccc(-c2noc(-c3cccnc3NCc3ccco3)n2)c1 | 11%
COc1ccc(OC)c(CCNC(=O)c2cc3c(s2)-c2c(C)cccc2OC3)c1 | -10%
CCc1cccc(NC(=O)CCc2nc3cccnc3n2-c2ccccc2)c1 | -1%
CCCCNC(=O)c1cnn2c(C)c(Cc3c(C)cc(C)cc3C)c(C)nc12 | ?
O=C(Cc1ccc(Cl)cc1)Nc1ccc2oc(-c3ccccc3F)nc2c1 | -37%
COc1ccc(Cn2c(C(=O)O)c(CNCCc3cc(OC)ccc3OC)c3ccc(C)cc32)cc1 | ?
Cc1ccc(-c2noc(-c3ccc(NCc4ccco4)c([N+](=O)[O-])c3)n2)cc1 | -15%
COc1ccc(-c2nc(C(=O)Nc3cccc(C(C)=O)c3)nn2-c2ccc(Cl)cc2)cc1 | -2%
O=C(NC1CCCC1)c1ccc2c(=O)n(Cc3ccccc3)c(SCc3ccccc3F)nc2c1 | -1%
COc1ccc2cc3cc(C(=O)N4CCN(c5cccc(C(F)(F)F)c5)CC4)sc3nc2c1 | -3%
CCOc1cccc(C(=O)Nc2ccc(-c3nc4cc(C)cc(C)c4o3)cc2)c1 | 2%
CC(CNC(=O)c1ccc2c(c1)nc1n2CCOC1)c1ccccc1 (stereo unspecified) | -73%
COc1ccccc1CNc1nc(-c2ccco2)nn1S(C)(=O)=O | -31%
CCOc1ccc(NCc2cccn2-c2nnc(N3CCC(C(=O)NCCc4ccc(OC)c(OC)c4)CC3)s2)cc1 | 26%
The list continues:
SMILES | miR-21 reporter
Cc1ccc(-n2nc3c(=O)n(CC(=O)NCCC(C)C)nc(C)c3c2C)cc1 | 1%
COc1ccc(-n2cc(-c3ccccc3)c3c(NCCc4ccc(OC)c(OC)c4)ncnc32)cc1 | ?
COc1cccc2c1cc1c(=O)n(CC(=O)NC3CC3)nc(C)n12 | -2%
O=C(Cn1cc(C(=O)C(F)(F)F)c2ccccc21)N1CCCCCC1 | -4%
CCOc1ccccc1NC(=O)CSc1c2c(nc3ccc(Cl)cc13)CCCC2 | -7%
Cc1nn2c(=O)cc(COC(=O)c3ccccc3NC(=O)C(C)C)nc2s1 | -5%
Cc1c(Cl)cccc1Nc1nn2c(=O)c3ccc(C(=O)NCCc4ccccc4)cc3nc2s1 | 2%
CCCCCCOc1ccc(C2C(=O)N(C3CCCCC3)CC(=O)N2C2CCCCC2)cc1 (stereo unspecified) | 2%
COc1cc2[nH]c(=O)n(CCCC(=O)NCc3ccc(Cl)cc3)c(=O)c2cc1OC | -7%
CCOc1cc(-c2nnc(SCC(=O)NCCCOC)nc2-c2ccc(OC)c(OCC)c2)ccc1OC | 28%
CC(C)Cc1ccc(S(=O)(=O)NCc2nc3cccnc3n2Cc2ccccc2)cc1 | 9%

Two of the compounds above, as labelled records:
Cc1ccc(-n2nc3c(N4CCC(C(=O)N5CCC(C)CC5)CC4)nnc(C)c3c2C)cc1
- miR-21 reporter: -8%

Cc1ccc(S(=O)(=O)NCc2ccc(C(=O)NCCc3cccc(C)c3)cc2)cc1
- miR-21 reporter: -2%
